NS1 function inh – inhibitors of influenza NS1 protein function | Potency, µM (top dose mostly 46.1 µM), for the others: at the top dose activity, positive = more growth | 270,000 compounds, 0.4% hits | S. cerevisiae slowed by influenza A NS1, growth recovery by OD600; further: actives are rising curves; nearly all actives have a fitted effect of over 50% in size
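In this qHTS, NS1 from influenza A is expressed in budding yeast, where it slows growth. Cells are switched from glucose to 2% galactose medium (pH 6.0, -URA), treated with compound, and growth recovery is read at OD600.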
Cruzain Triton – inhibitors of Trypanosoma cruzi cruzain with detergent. purified cruzain, Z-FR-AMC fluorescence, 0.01% Triton. P25779. Potency, µM, without a hit: max response, negative = inhibition, most hits filed as inhibitors. 200,000 compounds, 0.43% hits; active means well fitted curve in the direction sought with a large enough effect; inconclusive means small, poorly fitted or top-dose-only effect, or another doubt; inactive means no such curve, though single readings can be large; an effect the other way counts as inactive or inconclusive;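 further: plate controls were neutral wells for no effect and buffer without enzyme for full effect; nearly all actives have a fitted effect of over 40% in size; top concentration of the series not given in the record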
Target sequence (P25779 123-467 limits assumed): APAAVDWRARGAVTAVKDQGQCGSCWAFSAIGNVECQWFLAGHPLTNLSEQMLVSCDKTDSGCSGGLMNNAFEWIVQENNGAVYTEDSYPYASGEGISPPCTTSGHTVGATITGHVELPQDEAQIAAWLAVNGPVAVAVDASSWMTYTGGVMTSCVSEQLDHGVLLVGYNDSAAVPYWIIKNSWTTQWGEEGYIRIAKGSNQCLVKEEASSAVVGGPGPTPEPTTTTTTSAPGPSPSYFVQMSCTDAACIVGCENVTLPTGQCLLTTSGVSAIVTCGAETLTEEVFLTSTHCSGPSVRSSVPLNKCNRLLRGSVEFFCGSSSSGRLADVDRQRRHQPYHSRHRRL
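Steps: dispense cruzain (1.5 nM final) in acetate buffer pH 5.5 with DTT and 0.01% Triton X-100; pin-transfer compounds; incubate 15 min RT; add Z-FR-AMC (2 uM final); read fluorescence every 30 s, using the 60 s intensity change.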
RE007 growth inh – less growth of the S. pombe RE007 Vpr strain; Potency, µM (top dose mostly 92.2 µM), inactives show at the highest dose activity change, negative = less growth; S. pombe RE007 Vpr strain, BacTiter-Glo ATP luminescence, 24 h; control for the full effect not named in the record; 360,000 compounds, 0.21% hits; active = well fitted falling curve with a large enough effect; inconclusive = small, poorly fitted or top-dose-only effect; inactive = no such curve, though single readings can be large or run the other way;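 further: on the % scale 0 is the no-effect control and ±100 the full control effect; nearly all actives have a fitted effect of over 50% in size; the assay follows cell death caused by Vpr and the record does not say whether a fall means rescue or toxicity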
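Fission yeast strain RE007, carrying one chromosomally integrated HIV-1 vpr copy, was seeded at OD 0.01 in PMG+AL medium with 23 nL pinned compound. After 24 h at 30 °C and 99% humidity, viability was read by BacTiter-Glo luminescence.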
Marburg entry inh – blocks Marburg virus binding to or entry into cells; Potency, µM (titrated, usually from 37.8 µM), without a hit: top-dose activity change, negative = inhibition, most hits filed as inhibitors; 300,000 compounds, 1.8% hits; Marburg virus pseudotyped entry inhibition, cell reporter; control for the full effect not named in the record; about a third of the inactives were read at about 46 µM; active = well fitted inhibition curve with a large enough effect; inconclusive = small, poorly fitted or top-dose-only effect, or effect the other way; inactive = flat fitted curve, though single readings scatter; tested in HEK293 cells; about a fifth of its hits are not listed in these tables; further: on the % scale 0 is the no-effect control and ±100 the full control effect; luciferase read-out
Lassa entry inh – inhibitors of Lassa virus binding or cell entry; Lassa virus pseudotype entry inhibition, cell reporter; control for the full effect not named in the record; Potency, µM (highest dose often 37.9 µM), without a hit: at the top dose activity change, negative = inhibition, hits mostly inhibitors; 300,000 compounds, 1.2% hits; AID 540256; active means well fitted inhibition curve with a large enough effect; inconclusive means small, poorly fitted or top-dose-only effect, or effect the other way; inactive means flat fitted curve, though single readings scatter; tested in HEK293 cells; further: on the % scale 0 is the no-effect control and ±100 the full control effect; nearly all actives have a fitted effect of over 50% in size; luciferase read-out
Cruzain noTriton – blocks cruzain activity in detergent-free assay; Potency, µM, for the others: max response, negative = inhibition, most hits filed as inhibitors; purified cruzain, Z-FR-AMC fluorescence, no detergent; AID 1476; 200,000 compounds, 2.3% hits; active means well fitted curve in the direction sought with a large enough effect; inconclusive means small, poorly fitted or top-dose-only effect, or another doubt; inactive means no such curve, though single readings can be large; an effect the other way counts as inactive or inconclusive;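 further: plate controls were enzyme without inhibitor for no effect and buffer without enzyme for full effect; nearly all actives have a fitted effect of over 40% in size; top concentration of the series not given in the record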
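Detergent-free condition (0.00005% Triton X-100) in acetate buffer pH 5.5 with DTT. 1.5 nM enzyme and compound were pre-mixed 15 min, then 2 uM Z-FR-AMC substrate added; reaction progress from fluorescence change between first and third reads (60 s).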
SARS PLP yeast – blocks SARS-CoV papain-like protease in a yeast assay; S. cerevisiae expressing SARS-CoV PLpro, growth rescue; control for the full effect not named in the record; Potency, µM (series often up to 32.9 µM), for inactives: at the top dose activity, positive = growth rescue; 330,000 compounds, 0.19% hits; AID 485353; further: 0% is about no effect; nearly all actives have a fitted effect of over 55% in size; growth read by luminescence after 48 h
2A StopGo – lowers the luciferase signal of an FMDV 2A StopGo reporter; 410,000 compounds, 1.2% hits; Potency, µM (highest dose often 57.9 µM), without a hit: at the highest dose signal change, negative = less light; AID 1159524; human cells with a luciferase reporter of 2A StopGo recoding; control for the full effect not named in the record; active = well fitted falling curve with a large enough effect; inconclusive = small, poorly fitted or top-dose-only effect; inactive = no such curve, though single readings can be large or run the other way; tested in HEK293T cells; further: on the % scale 0 is the no-effect control and ±100 the full control effect; nearly all actives have a fitted effect of over 45% in size; luciferase light after 4 h
* hit, by the source's call; ? = inconclusive; . = no result given; & = joins results of further samples; [ ] = another dose, or the depositor's remark. Unless noted, the call rests on the fitted dose curve; in most records, active means well fitted rising curve with a large enough effect; inconclusive means small, poorly fitted or top-dose-only effect; inactive means no such curve, though single readings can be large or run the other way. Potency means the concentration at half of the fitted maximal effect.

SMILES	NS1 function inh	Cruzain Triton	RE007 growth inh	Marburg entry inh	Lassa entry inh	Cruzain noTriton	SARS PLP yeast	2A StopGo
CC(=O)Nc1ccc(NC(=O)CSc2nnc(CC(C)O)n2-c2ccccc2)cc1 (stereo unspecified)	-2%	.	8%	.	.	.	4%	-8%
Cc1ccc(Nc2nc(Cl)nc3ncn(C)c23)c(C)c1	.	.	9%	?	22%	.	.	-2%
COc1ccc(N(CC(=O)Nc2ccc(C)cn2)S(=O)(=O)c2c(C)noc2C)cc1	-44%	-3.8%	-9%[3.69 µM]	-2%	-6%	-7%	0%	?
COc1ccc(C(C)=O)cc1CSc1nnc(C)s1	-82%	1.1%	1%	0%	5%	-2%	2%	6%
O=C(c1cccc(S(=O)(=O)Nc2ccccc2Cl)c1)N1CCN(C(=O)c2ccco2)CC1	1%	.	12%	?	-8%[46.1 µM]	.	8%	-5%
C/C(=N\NC(=O)c1nnn(-c2nonc2N)c1CN(C)c1ccccc1)c1ccccn1	-11%	.	1%	.	.	.	11%	-10%
COc1ccc(CNC(=O)CSc2nc3ccccc3n2C(C)=O)cc1	-9%	.	0%	.	.	.	0%	-2%
O=C1CCCC2=C1C(c1cccs1)n1nc(SCc3ccc(C(=O)O)cc3)nc1N2 (stereo unspecified)	6%	.	-14%	.	.	.	0%	-18%
CC(O)CNc1nc2c(c(=O)n(Cc3ccc(Cl)cc3)c(=O)n2C)n1C (stereo unspecified)	-12%	-2.9%	1%	?	-23%&1%[46.1 µM]	-7%	2%	-24%&-20%
Cc1cc(=O)oc2cc(Nc3ccccc3)ccc12	-8%	0.4%	-25%	16%	18%	-10%	-2%	20%
CCOC(=O)C1CCN(Cc2coc3c(Cl)cc(Cl)cc3c2=O)CC1	1%	3.6%	-1%	-6%	-7%	?	-1%	2%
O=C(c1cc([N+](=O)[O-])ccc1N1CCOCC1)N1CCCCC1	13%	-5.7%	-5%	6%	0%	-8%	10%	-21%
Cc1c(C(=O)NN)nn(-c2ccc(F)cc2)c(=O)c1C#N	?	.	-17%	5%[46.1 µM]	17%[46.1 µM]	.	0%	-2%
CN(CC1CCOCC1)C(=O)CC1C(=O)NCCN1Cc1ccc(F)c(F)c1 (stereo unspecified)	5%	.	8%	?	24%	.	1%	2%
Cc1cc(C)c2c(c1)C1C=CCC1C(c1ccc(S(=O)(=O)N3CCOCC3)cc1)N2 (stereo unspecified)	29%	-3.0%	9%	?	?	4%	0%	.
COc1ccc(N=C2S/C(=C\c3ccc(OC(C)C(=O)O)c(OC)c3)C(=O)N2CCc2c[nH]c3ccccc23)cc1 (stereo unspecified)	10%	.	8%	?	?	.	0%	?
COc1cccc(-c2nn(-c3ccccc3)cc2C(=O)n2nnc3ccccc32)c1	7%	-14%	15%	11%	-1%	32µM*	0%	40µM*
COc1cc(S(=O)(=O)N2CCC(O)(c3cccc(C(F)(F)F)c3)CC2)ccc1-n1cnnn1	2%	1.4%	-1%	2%&-26%	0%	7%	0%	.
O=C(NCc1ccco1)c1ccc(Cl)cc1[N+](=O)[O-]	-1%	.	-5%	.	.	.	1%	9%
CCCCn1c2c(c(=N)c3c1CCC3)CCC2	-5%	-3.2%	-9%	?	?	1%	?	?
CCCS(=O)(=O)c1nc(S(=O)(=O)c2ccc(C)cc2)c(NCc2ccco2)s1	6%	-4.5%	-17%	?	?	0%	5%	11%
CC1CN(CCOCCSc2ccc(Cl)cc2)CC(C)O1 (stereo unspecified)	-29%	.	-7%	.	.	.	-2%	-6%
Cc1ccc(/C=C2\SC(=S)N(CCCC(=O)N3CCOCC3)C2=O)cc1	6%	.	-9%	-15%[46.1 µM]	-6%[46.1 µM]	.	8%	-7%
CN1CCN(CC(=O)NC2CCCCC2)CC1	5%	3.0%	-11%	15%	0%	-5%	1%	0%
COC(=O)CCCC(=O)N1CCCC(N(C)CCc2ccccc2)C1 (stereo unspecified)	7%	.	-1%	.	.	.	5%	-7%
O=C(NCc1ccccc1)c1ccc(CS(=O)(=O)c2c(Cl)cccc2Cl)o1	.	-1.7%	.	3%[46.1 µM]	?	4%	.	4%
CC(=O)[C@@]1(O)CC[C@H]2[C@@H]3CCC4=CC(=O)CC[C@]4(C)[C@H]3[C@@H](O)C[C@@]21C	-10%	0.7%	-6%[18.4 µM]	17%	-4%	0%	-1%	-27%
COc1ccc(CCC(=O)N2c3ccccc3CC2C)cc1 (stereo unspecified)	-25%	-1.0%	-11%	-16%	-1%	-10%	-9%	24%
CN(C(=O)CSc1nnc(Cc2ccccc2F)n1N)C1CCCCC1	.	.	13%	-5%	3%	.	3%	19%
COC(=O)COc1ccc(S(=O)(=O)N2CCCCCC2)cc1	.	.	4%	14%[46.1 µM]	12%	.	3%	-10%
O=C(NCCCN1CCOCC1)/C(=C/c1cccnc1)NC(=O)c1ccccc1	.	.	-11%	?	3%	.	-3%	8%
CN(Cc1ccncc1)C1CC(=O)N(c2ccc(F)cc2)C1=O (stereo unspecified)	2%	.	-12%	.	.	.	-6%	-8%
CC1(C)COC(c2cc3c(cc2Br)OCO3)OC1	.	.	-19%	2%[46.1 µM]	-13%[46.1 µM]	.	.	4%
O=C(CCC(=O)N1CCN(C2CCCC2)CC1)Nc1nnc(C(F)(F)F)s1	?	3.1%	-4%	-2%	-6%	-7%	5%	8%
COc1ccc(N(Cc2cccs2)C(=O)c2ccc(Br)o2)cc1	.	-4.9%	.	-29%[46.1 µM]	-17%[46.1 µM]	5%	.	-25%
Cc1ccc(C(=O)COC(=O)c2ccc(O)cc2)cc1	-3%	.	1%	?	?	.	-6%	17%
CCN(CC)S(=O)(=O)c1ccc(C(=O)N2CCN(c3ncccn3)CC2)cc1	0%	.	2%	4%[46.1 µM]	-3%[46.1 µM]	.	1%	-1%
c1coc(-c2nnc3sc(C4CCCCC4)nn23)c1	-105%	2.9%	22%	-5%&-5%	7%	4%	0%	-25%
CCC1CCCCN1C(=O)CCS(=O)(=O)c1ccc2c(c1)CCN2C(C)=O (stereo unspecified)	-2%	.	9%	.	.	.	2%	-22%
CCNC(=S)NNC(=O)c1cc(-c2cccc(OC)c2)nc2ccccc12	7%	-1.3%	-8%	?	?	24%	0%	25%
Cc1ccc(NC2CCCN(C(=O)c3ccc(-n4ccnc4)cc3)C2)cc1C (stereo unspecified)	-8%	.	-19%	1%	-22%	.	-7%	-23%
CCOC(=O)c1cnc2c(cnn2C)c1NCCC(O)C(F)(F)F (stereo unspecified)	17%	3.6%	-11%	-10%	6%	?	1%	14%
CCOc1ccc(-c2nn3c(-c4ccc(F)cc4)nnc3s2)cc1	26%	.	12%	20%	-9%	.	.	.
CN(Cc1ccccc1)c1nnc(NC(=O)Nc2cccc(Br)c2)s1	.	-7.2%	.	?	?	16%	.	?
CCc1c(O)nc(SCC(=O)Nc2nc3ccccc3s2)n(-c2ccc(C)cc2)c1=O	?	.	-8%	.	.	.	6%	-13%
COc1ccc(C(=O)OCc2c(C)noc2C)cc1	.	.	2%	5%[14.2 µM]	-14%	.	1%	0%
COc1ccc2oc3ccc(OC)cc3c(=O)c2c1	-39%	5.0%	-23%	?	-18%	3%	-5%	51%[activator]
O=C(COC(=O)/C=C/c1cccc([N+](=O)[O-])c1)NCCCN1CCCC1=O	.	.	-2%	1%[46.1 µM]	?	.	-7%	2%
c1cncc(-c2nc(N3CCCCCC3)c3ccccc3n2)c1	-94%	-1.1%	1%	?	?	-2%	-15%	?
Cc1cc(-c2ccc(C(C)C)c(S(=O)(=O)N3CCN(c4ccccn4)CC3)c2)on1	-47%	.	2%	.	.	.	-2%	?
O=C(NCc1cccnc1)/C(=C/c1ccccc1)NC(=O)c1ccccc1	-1%	.	10%	15%[46.1 µM]	11%	.	0%	13%
O=C(SCC(O)C(O)CS)c1cccs1 (stereo unspecified)	5%	.	-9%	.	.	.	0%	-11%
Cc1cc(C)c2nc(N(Cc3cccnc3)C(=O)CCS(=O)(=O)c3ccccc3)sc2c1	.	-0.9%	.	.	12%[46.1 µM]	13%	.	-11%
Cc1sc2ncn(CC(=O)N3CCCCC3)c(=O)c2c1C	3%	.	1%	.	.	.	3%	0%
O=C(NC1CCCC1)c1cccc(Oc2ccccc2)c1	.	.	15%	6%[46.1 µM]	0%[46.1 µM]	.	0%	17%
Cc1ccccc1-n1c2nc(=O)n(C)c(=O)c-2cc2ccccc21	5%	.	-9%	-12%[14.2 µM]	6%	.	-1%	-2%
COC(=O)c1ccc(Cl)cc1NC(=O)N1CC=C(c2c[nH]c3ccccc23)CC1	.	-11%	.	.	30%[46.1 µM]	?	.	5%
Cc1ccc(NC(=O)CN2C(=O)S/C(=C\c3cc(C)n(C)c3C)C2=O)cc1	5%	1.1%	-26%	2%	8%	-20%	3%	.
CCCOc1ccc(N2C(=O)CC(N3CCN(C(=O)c4ccco4)CC3)C2=O)cc1 (stereo unspecified)	-29%	3.3%	-16%	16%	-9%	0%	-28%	-5%
CN(CC(=O)Nc1cccc([N+](=O)[O-])c1)S(=O)(=O)c1ccccc1	3%	.	18%	.	.	.	0%	6%

Further entries follow.
SMILES	NS1 function inh	Cruzain Triton	RE007 growth inh	Marburg entry inh	Lassa entry inh	Cruzain noTriton	SARS PLP yeast	2A StopGo
O=C(O)CC(NC(=O)CC(c1ccccc1)c1ccccc1)c1cccc([N+](=O)[O-])c1 (stereo unspecified)	-2%	.	-5%	.	.	.	1%	3%
O=C(CNC(=S)NC(=O)C1CCCCC1)c1ccccc1	-7%	0.2%	11%	?	12%	?	-2%	43%[activator]
Cc1cc(C)n2nc(SCC(=O)N3CCC4(CC3)OCCO4)nc2n1	8%	-1.4%	-5%	-9%	36%[14.3 µM]	-12%	1%	13%
COc1ccccc1/C=N/NC(=O)C1=NNC(c2ccccc2)(c2ccccc2)C1	-6%	-9.6%	.	.	.	16µM*	-20%	.

Compound activity deposited in PubChem by National Center for Advancing Translational Sciences (NCATS).
